Screening data from PubChem BioAssay.
Vaccinia inh: Vaccinia orthopox stage-specific inhibition; Vaccinia-infected cells, mCherry/Venus stage reporter fluorescence; active compounds read low; some inactives read as strong as hits; activity change (mCherry), % (test concentration not listed); hit rate 0.01% among 89,000; AID 1053133;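 active means mCherry past -33% and 40 or more points under the early reporter, replicates agreeing; inconclusive means past -33% without that gap or agreement; tested in A549 cells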;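 further: scaled between vehicle wells and reference inhibitor wells; 23 nL library stock went into each well; one replicate is shown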
Vaccinia inh Venus: further read-out of Vaccinia inh, marked with its call; activity change (Venus), %; measured here: Venus reporter, other viral stage;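 negative = less Venus signal; first of two replicates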
The depositor's hits bear a star; & = joins results of further samples.

How did C[C@@H]1CN([C@H](C)CO)C(=O)c2cccc(NS(C)(=O)=O)c2O[C@@H]1CN(C)CC1CC1 do in these assays?
Vaccinia inh: 8; Vaccinia inh Venus: 6

Results for C[C@H](CO)N1C[C@H](C)[C@@H](CN(C)S(C)(=O)=O)Oc2ccc(NC(=O)CCC(F)(F)F)cc2C1=O ?
Vaccinia inh: 7; Vaccinia inh Venus: 5

What do the screens show for `CO[C@H]1CN(C)C(=O)c2ccc(NC(C)=O)cc2OC[C@H](C)N(Cc2ccccc2C(=O)O)C[C@@H]1C`?
Vaccinia inh: 4; Vaccinia inh Venus: 2

What do the screens show for `C[C@H]1CN([C@@H](C)CO)C(=O)Cc2cc(NS(=O)(=O)c3ccccc3)ccc2O[C@H]1CN(C)Cc1ccc(C(F)(F)F)cc1`?
Vaccinia inh: -18; Vaccinia inh Venus: -16

What do the screens show for `CC=Cc1ccc2n(c1=O)C[C@H]1[C@H](CO)[C@@H](C(=O)NC3CCC3)N(S(C)(=O)=O)[C@@H]21` (mixture of isomers)?
Vaccinia inh: 9; Vaccinia inh Venus: 6

What do the screens show for `C[C@H](CO)N1C[C@H](C)[C@H](CN(C)C(=O)C2CC2)Oc2cc(C#C[C@@H](C)O)ccc2S1(=O)=O`?
Vaccinia inh: 15; Vaccinia inh Venus: 13

Results for COC(=O)C[C@@H]1CC[C@@H](NS(=O)(=O)c2ccc(OC)cc2)[C@H](CO)O1 ?
Vaccinia inh: -7; Vaccinia inh Venus: -2

What do the screens show for `C[C@H](CO)N1C[C@H](C)[C@@H](CN(C)C(=O)Nc2ccc(F)cc2)Oc2c(NS(=O)(=O)c3ccc(Cl)cc3)cccc2C1=O`?
Vaccinia inh: 8; Vaccinia inh Venus: 14

Results for CNC[C@@H]1Oc2ccc(NS(=O)(=O)c3ccc(F)cc3)cc2C(=O)N([C@H](C)CO)C[C@@H]1C ?
Vaccinia inh: 7; Vaccinia inh Venus: -3

How did CN1C(=O)c2cc(NC(=O)c3cccs3)ccc2OC[C@H]2O[C@@H](CC(=O)N3CCOCC3)CC[C@H]21 do in these assays?
Vaccinia inh: 1; Vaccinia inh Venus: 0

What do the screens show for `C[C@H](CO)N1C[C@H](C)[C@@H](CN(C)C(=O)NC2CCCCC2)Oc2c(NC(=O)Nc3ccc(F)cc3)cccc2C1=O`?
Vaccinia inh: -1; Vaccinia inh Venus: 2

How did O=C(C[C@@H]1C[C@H]2c3cc(NC(=O)CC4CC4)ccc3O[C@H]2[C@@H](CO)O1)NCc1ccccc1 do in these assays?
Vaccinia inh: -2; Vaccinia inh Venus: 1

What do the screens show for `COc1cccc(NC(=O)N[C@@H]2C=C[C@@H](CC(=O)N3CCCCC3)O[C@H]2CO)c1`?
Vaccinia inh: -6; Vaccinia inh Venus: -11

How did Cc1ccc(S(=O)(=O)N(C)C[C@H]2Oc3ccc(NC(=O)Nc4ccc(C(F)(F)F)cc4)cc3C(=O)N([C@H](C)CO)C[C@@H]2C)cc1 do in these assays?
Vaccinia inh: -23; Vaccinia inh Venus: -18

What do the screens show for `COc1ccccc1NC(=O)N[C@H]1CC[C@@H](CCNC(=O)c2ccc3c(c2)OCO3)O[C@@H]1CO`?
Vaccinia inh: -13; Vaccinia inh Venus: -10

How did CNC(=O)C[C@H]1CC[C@@H]2[C@@H](COc3ccc(NC(=O)c4cccc(F)c4)cc3C(=O)N2C)O1 do in these assays?
Vaccinia inh: 7&-5; Vaccinia inh Venus: 1&-7

Results for CN(C)CC#Cc1ccc([C@@H]2[C@@H](CO)N3CCCCN(C(=O)C4CCCC4)C[C@@H]23)cc1 ?
Vaccinia inh: 17; Vaccinia inh Venus: 2

What do the screens show for `CNC[C@H]1Oc2ccc(NC(=O)C3CCCCC3)cc2CC(=O)N([C@H](C)CO)C[C@@H]1C`?
Vaccinia inh: -7; Vaccinia inh Venus: -13

What do the screens show for `C[C@@H](NC(=O)C[C@@H]1C[C@H]2c3cc(NC(=O)CN(C)C)ccc3O[C@H]2[C@H](CO)O1)c1ccccc1`?
Vaccinia inh: 4; Vaccinia inh Venus: 0

What do the screens show for `CC(C)NC(=O)N(C)C[C@H]1Oc2ccc(NS(C)(=O)=O)cc2C(=O)N([C@H](C)CO)C[C@H]1C`?
Vaccinia inh: 5; Vaccinia inh Venus: 1

3 records picked at random from those above, as already listed:
How did C[C@@H]1CN([C@H](C)CO)C(=O)c2cccc(NS(C)(=O)=O)c2O[C@@H]1CN(C)CC1CC1 do in these assays?
Vaccinia inh: 8; Vaccinia inh Venus: 6

What do the screens show for `C[C@H](CO)N1C[C@H](C)[C@@H](CN(C)C(=O)NC2CCCCC2)Oc2c(NC(=O)Nc3ccc(F)cc3)cccc2C1=O`?
Vaccinia inh: -1; Vaccinia inh Venus: 2

How did CNC(=O)C[C@H]1CC[C@@H]2[C@@H](COc3ccc(NC(=O)c4cccc(F)c4)cc3C(=O)N2C)O1 do in these assays?
Vaccinia inh: 7&-5; Vaccinia inh Venus: 1&-7

The main list resumes, starting 3 compounds before the break.
What do the screens show for `CNC[C@H]1Oc2ccc(NC(=O)C3CCCCC3)cc2CC(=O)N([C@H](C)CO)C[C@@H]1C`?
Vaccinia inh: -7; Vaccinia inh Venus: -13

What do the screens show for `C[C@@H](NC(=O)C[C@@H]1C[C@H]2c3cc(NC(=O)CN(C)C)ccc3O[C@H]2[C@H](CO)O1)c1ccccc1`?
Vaccinia inh: 4; Vaccinia inh Venus: 0

What do the screens show for `CC(C)NC(=O)N(C)C[C@H]1Oc2ccc(NS(C)(=O)=O)cc2C(=O)N([C@H](C)CO)C[C@H]1C`?
Vaccinia inh: 5; Vaccinia inh Venus: 1

How did N#Cc1cccc(-c2ccc([C@@H]3[C@@H](CO)N4CCCCN(C(=O)Nc5ccc(F)cc5)C[C@H]34)cc2)c1 do in these assays?
Vaccinia inh: inconclusive

How did COc1ccc(S(=O)(=O)N(C)C[C@@H]2Oc3ccc(NC(=O)Nc4ccc(C(F)(F)F)cc4)cc3C(=O)N([C@H](C)CO)C[C@@H]2C)cc1 do in these assays?
Vaccinia inh: inconclusive

What do the screens show for `COCc1cn(CC[C@H]2CC[C@H](NC(=O)Nc3ccc(C(F)(F)F)cc3)[C@@H](CO)O2)nn1`?
Vaccinia inh: 8; Vaccinia inh Venus: 8

How did CO[C@H]1CN(C)C(=O)c2cc(NS(=O)(=O)c3cn(C)cn3)ccc2OC[C@H](C)N(CC2CC2)C[C@H]1C do in these assays?
Vaccinia inh: 8; Vaccinia inh Venus: 4

Results for C[C@H]1CN([C@@H](C)CO)C(=O)c2cc(C#CC3(O)CCCC3)cnc2O[C@@H]1CN(C)C(=O)Cc1cccnc1 ?
Vaccinia inh: 15; Vaccinia inh Venus: 1

How did CO[C@@H]1CC[C@@H]2CCOc3ccc(C#N)cc3C(=O)N(C)CCCC(=O)N(C)C[C@H]1O2 do in these assays?
Vaccinia inh: 12; Vaccinia inh Venus: 8

How did COc1ccc(S(=O)(=O)Nc2ccc3c(c2)C(=O)N([C@H](C)CO)C[C@H](C)[C@H](CN(C)C)OCCCC[C@@H](C)O3)cc1 do in these assays?
Vaccinia inh: 4; Vaccinia inh Venus: 5

How did COc1ccc(CN(C)C[C@H]2OCCCC[C@@H](C)Oc3ccc(NS(C)(=O)=O)cc3C(=O)N([C@H](C)CO)C[C@H]2C)cc1 do in these assays?
Vaccinia inh: 3; Vaccinia inh Venus: 4

Results for C[C@@H]1CN([C@@H](C)CO)C(=O)Cc2cc(NC(=O)Cc3ccccc3)ccc2O[C@H]1CN(C)C(=O)Nc1ccc(C(F)(F)F)cc1 ?
Vaccinia inh: -18; Vaccinia inh Venus: -13

Results for O=C(C[C@H]1C[C@@H]2c3cc(NC(=O)C4CCOCC4)ccc3O[C@@H]2[C@H](CO)O1)NCc1ccncc1 ?
Vaccinia inh: 10; Vaccinia inh Venus: 5

Results for Cc1noc(C)c1NC(=O)Nc1ccc2c(c1)C(=O)N([C@@H](C)CO)C[C@@H](C)[C@H](CN(C)Cc1ccncc1)OCCCC[C@H](C)O2 ?
Vaccinia inh: 11; Vaccinia inh Venus: 16

Results for C[C@@H]1CN([C@H](C)CO)C(=O)c2cc(-c3ccc(F)cc3)cnc2O[C@H]1CN(C)C(=O)Nc1ccccc1F ?
Vaccinia inh: 9; Vaccinia inh Venus: 7

Results for Cc1ccccc1-c1ccc(C2[C@@H]3CN(S(=O)(=O)c4cn(C)cn4)C[C@H]2N3)cc1 (stereo not given in full) ?
Vaccinia inh: inconclusive; Vaccinia inh Venus: -8

What do the screens show for `C[C@@H]1CN([C@H](C)CO)C(=O)c2cc(NC(=O)CCCN(C)C)ccc2O[C@@H]1CN(C)Cc1ccc(C(=O)O)cc1`?
Vaccinia inh: 11; Vaccinia inh Venus: 7

Results for C[C@@H]1CCCCO[C@H](CN(C)S(=O)(=O)c2cccs2)[C@@H](C)CN([C@H](C)CO)C(=O)c2cc(NS(C)(=O)=O)ccc2O1 ?
Vaccinia inh: 11; Vaccinia inh Venus: 2

How did COc1ccccc1NC(=O)N1CCCCN2[C@H](CO)[C@@H](c3ccc(C#CC4CCCC4)cc3)[C@@H]2C1 do in these assays?
Vaccinia inh: -34; Vaccinia inh Venus: -31

Results for CCC(=O)N1C[C@@H](C)[C@H](OC)CN(C)C(=O)c2ccc(NC(=O)Nc3cccc(F)c3)cc2OC[C@@H]1C ?
Vaccinia inh: -6; Vaccinia inh Venus: -5

What do the screens show for `C[C@@H]1CN([C@H](C)CO)C(=O)Cc2cc(NC(=O)Nc3ccccc3)ccc2O[C@@H]1CN(C)Cc1ccc(C(=O)O)cc1`?
Vaccinia inh: 10; Vaccinia inh Venus: 7

What do the screens show for `CC(=O)N(C)C[C@@H]1[C@@H](c2ccc(-c3ccccc3F)cc2)[C@@H](CO)N1C(C)=O`?
Vaccinia inh: -22; Vaccinia inh Venus: -4

Results for C[C@H](CO)N1C[C@H](C)[C@@H](CN(C)C(=O)C2CCC2)Oc2ncc(C#CC(C)(C)O)cc2C1=O ?
Vaccinia inh: 10; Vaccinia inh Venus: 13

What do the screens show for `CCCC(=O)Nc1ccc2c(c1)C(=O)N(C)[C@@H]1CC[C@H](CC(=O)NCCN3CCCCC3)O[C@@H]1CO2`?
Vaccinia inh: 6; Vaccinia inh Venus: 1

Results for CCc1cnc(N2[C@H](CO)[C@@H](c3ccc(-c4cccc(F)c4)cc3)[C@@H]2C#N)s1 ?
Vaccinia inh: -16; Vaccinia inh Venus: -6

Results for C[C@H]1CCCCO[C@@H](CN(C)Cc2ccccc2)[C@@H](C)CN([C@@H](C)CO)C(=O)c2cc(NC(=O)C3CCCCC3)ccc2O1 ?
Vaccinia inh: inconclusive

How did C[C@H](CO)N1C[C@H](C)[C@@H](CN(C)S(=O)(=O)c2cn(C)cn2)Oc2c(NS(=O)(=O)c3ccccc3)cccc2C1=O do in these assays?
Vaccinia inh: 18; Vaccinia inh Venus: 13

How did C[C@H]1CN([C@@H](C)CO)C(=O)c2cccc(NC(=O)c3ccncc3)c2O[C@H]1CN(C)C(=O)Nc1ccc(F)cc1 do in these assays?
Vaccinia inh: 6; Vaccinia inh Venus: 9

How did COC(=O)C[C@H]1CC[C@H]2[C@@H](COC[C@H](O)CN2S(=O)(=O)c2ccc(F)cc2)O1 do in these assays?
Vaccinia inh: 2; Vaccinia inh Venus: 3

Results for O=C(c1cnccn1)N1CC[C@@H]2[C@H](CO)Nc3ccc(-c4ccccc4F)cc3[C@@H]21 ?
Vaccinia inh: -30; Vaccinia inh Venus: -16

Results for Cc1noc(C)c1S(=O)(=O)Nc1ccc2c(c1)C(=O)N([C@@H](C)CO)C[C@H](C)[C@@H](CN(C)Cc1ccc(C(=O)O)cc1)OCCCC[C@H](C)O2 ?
Vaccinia inh: 12; Vaccinia inh Venus: 2

What do the screens show for `CC(C)c1cn(CC[C@H]2CC[C@H](NS(=O)(=O)c3ccc(F)cc3)[C@@H](CO)O2)nn1`?
Vaccinia inh: 8; Vaccinia inh Venus: 12

What do the screens show for `C[C@@H]1CCCCO[C@@H](CN(C)S(C)(=O)=O)[C@H](C)CN([C@@H](C)CO)C(=O)c2cc(NC(=O)CCC(F)(F)F)ccc2O1`?
Vaccinia inh: 2; Vaccinia inh Venus: 7

Results for O=C(C[C@H]1C[C@H]2c3cc(NC(=O)NC4CCCCC4)ccc3O[C@H]2[C@@H](CO)O1)NCc1ccncc1 ?
Vaccinia inh: -2; Vaccinia inh Venus: -6

How did CC(C)(O)C#Cc1cccc(-c2nc(C(=O)O)cc3c2[C@@H](CCO)N(S(=O)C(C)(C)C)C3)c1 (stereo not given in full) do in these assays?
Vaccinia inh: 19; Vaccinia inh Venus: 31

How did CCCN1[C@@H]2c3ccc(-c4cccc(OC)c4)c(=O)n3C[C@H]1[C@H](CO)[C@H]2C(=O)OC do in these assays?
Vaccinia inh: 10; Vaccinia inh Venus: 7

What do the screens show for `COc1ccc2c3c([nH]c2c1)[C@@H](CO)N(Cc1cc(F)ccc1F)CC31CN(C(=O)C2CCC2)C1`?
Vaccinia inh: 7; Vaccinia inh Venus: -2

How did C[C@@H]1CN([C@H](C)CO)C(=O)c2cc(NC(=O)NC3CCCCC3)ccc2O[C@@H](C)CCCCO[C@H]1CN(C)Cc1ccccc1 do in these assays?
Vaccinia inh: inconclusive

Results for Cc1ccc(S(=O)(=O)Nc2ccc3c(c2)C(=O)N([C@H](C)CO)C[C@H](C)[C@@H](CN(C)Cc2ccncc2)O3)cc1 ?
Vaccinia inh: 12; Vaccinia inh Venus: 7

What do the screens show for `COc1ccc2c3c([nH]c2c1)[C@H](CO)N(Cc1ccccc1)CC31CCN(CC2CC2)CC1`?
Vaccinia inh: inconclusive

How did CO[C@@H]1CN(C)C(=O)c2cc(NS(=O)(=O)c3cccc(F)c3)ccc2OC[C@H](C)N(C(=O)Cc2cccnc2)C[C@H]1C do in these assays?
Vaccinia inh: -6; Vaccinia inh Venus: 4

Results for CC(C)NC(=O)Nc1ccc2c(c1)C(=O)N([C@H](C)CO)C[C@H](C)[C@H](CN(C)S(=O)(=O)c1ccc(F)cc1)O2 ?
Vaccinia inh: 3; Vaccinia inh Venus: 4

A portion of the library; count on the stated rates, not on these rows.
